Screening results from PubChem.
VDR inhibitor: Inhibitors of the vitamin D receptor (VDR): qHTS. VDR-SRC2-3 peptide fluorescence polarization, 2 h. Potency, µM, inactives show max response, negative = inhibition, actives largely listed as inhibitors. Vitamin D3 receptor (Homo sapiens), P11473. 0.93% of 400,000 active; active means well fitted inhibition curve with a large enough effect; inconclusive means small, poorly fitted or top-dose-only effect, or another doubt; inactive means no such curve, though single readings can be large or run the other way; further: series mostly up to about 120 µM
Target sequence (P11473 whole entry, looked up): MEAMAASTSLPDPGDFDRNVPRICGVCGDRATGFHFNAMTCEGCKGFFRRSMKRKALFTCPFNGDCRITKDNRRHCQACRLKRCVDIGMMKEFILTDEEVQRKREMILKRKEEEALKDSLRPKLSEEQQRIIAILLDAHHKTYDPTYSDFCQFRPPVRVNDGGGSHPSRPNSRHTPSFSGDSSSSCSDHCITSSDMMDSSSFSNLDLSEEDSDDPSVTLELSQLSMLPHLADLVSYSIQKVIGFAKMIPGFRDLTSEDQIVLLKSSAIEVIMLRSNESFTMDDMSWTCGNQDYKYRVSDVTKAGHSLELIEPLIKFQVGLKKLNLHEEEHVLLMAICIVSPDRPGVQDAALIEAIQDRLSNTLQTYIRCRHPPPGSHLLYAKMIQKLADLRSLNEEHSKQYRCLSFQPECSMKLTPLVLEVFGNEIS
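Reagent solutions, kept cold and dark, are dispensed first; compounds are then pinned in at 23 nl, plates briefly spun, and incubated 2 h at ambient temperature. Inhibition of VDR–SRC2-3 peptide binding is read by fluorescence polarization.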
* = called active by the depositor; ? = inconclusive. On the % scale 0 is the no-effect control and ±100 the full control effect; potency means the concentration at half of the fitted maximal effect. A portion of the library; count on the stated rates, not on these rows.

Structure,VDR inhibitor
Cc1nnc(N2C(=O)C(O)=C(C(=O)c3ccco3)C2c2cccc([N+](=O)[O-])c2)s1 (configuration not stated),-13.1%
CCCCN(CC)C(=O)CCn1c(=O)c2cccn2c2cccnc21,-3.4%
O=C(O)c1ccc(Sc2ccccn2)c([N+](=O)[O-])c1,16.8%
Cc1ccc(S(=O)(=O)N/N=C2\C(=O)C3(C)CCC2C3(C)C)cc1 (configuration not stated),2.6%
CCCc1nc2c(C)cc(-c3nc4ccccc4n3C)cc2n1Cc1ccc(-c2ccccc2C(=O)O)cc1,?
O=C(NC1CCCC1)c1ccc2c(c1)N(Cc1ccc(F)cc1)CCS2,-22.2%
COc1cc2c3nnc(-c4ccc(F)cc4)c-3cn(Cc3ccc(C)cc3)c2cc1OC,26.5%
COc1nc(Nc2cccc(C(F)(F)F)c2)nc(OC)n1,-18.2%
COC(=O)C/C=C/[C@@H](C)[C@H](NC(=O)OCC(Cl)(Cl)Cl)c1ccc2ccccc2c1,-1.5%
CC(C)COc1nc2ccccc2nc1C(C#N)C(=O)NC1CCCCC1 (configuration not stated),-2.0%
CC(C)(C)c1csc(NNC(=O)c2ccc(Br)cc2)n1,3.7%
Cc1onc(-c2ccccc2)c1C(=O)N/N=C/c1cc(Br)c(Br)o1,-5.3%
COc1cccc(C2=C(C(C)=O)Sc3nnc(C4CCCCC4)n3N2C(C)=O)c1,-1.0%
O=C(NNC(=O)c1ccccc1-n1cccc1)c1cccc(Cl)c1,-4.8%
CCc1ccc(OCC(=O)N2CCN(c3ccccn3)CC2)c(Br)c1,-1.5%
Cc1cc(C)n(C(=O)c2ccc(S(=O)(=O)N3CCOCC3)cc2)n1,-1.5%
Cc1ccc(CNC(=O)CSc2ncc3c(n2)-c2ccc(Cl)cc2N(Cc2ccccc2)S3(=O)=O)cc1,-2.9%
COc1ccc(-c2nc(-c3ccccc3)[nH]c(=O)c2C#N)cc1,9.9%
COc1cc2c(cc1OC)C(c1cccs1)NCC2 (configuration not stated),-8.6%
COc1ccc(S(=O)(=O)NC(C)C(=O)Nc2cccc([N+](=O)[O-])c2)cc1 (configuration not stated),11.3%
Cc1sc2ncn(CC(=O)N3CCN(c4ccc(Cl)cc4)CC3)c(=O)c2c1S(=O)(=O)N1CCN(c2ncccn2)CC1,-7.9%
CCOC(=O)COc1cccc(C2NC(=O)c3ccccc3O2)c1 (configuration not stated),-16.9%
COc1ccc(C2/C(=C(/O)c3ccccc3)C(=O)C(=O)N2c2ncccn2)cc1OC (configuration not stated),-6.9%
Cc1cc(C)cc(C(=O)N(CCc2ccccc2)C2CC3CCC(C2)N3C)c1 (configuration not stated),4.2%
COc1cc(C(=O)N(Cc2cc3ccccc3[nH]c2=O)CC2CCCO2)cc(OC)c1OC (configuration not stated),27.0%
O=c1cc[nH]c2cc(Cl)ccc12,16.4%
Cc1cccc(OCCSc2nc3ccccc3n2CCC(=O)O)c1,-25.3%
CCN(Cc1ccccc1)C(=O)COC(=O)CNS(=O)(=O)c1ccc(C)cc1,3.9%
O=C(CN(C(=O)c1ccc(Cl)cc1)C1CCCCC1)Nc1ccc(Cl)c([N+](=O)[O-])c1,2.9%
COc1ccc(Cl)cc1NC(=O)C/C(C)=N/NC(=O)Cc1ccccc1,-14.3%

A different layout for four compounds above:
> CCOC(=O)COc1cccc(C2NC(=O)c3ccccc3O2)c1 (configuration not stated)
  VDR inhibitor = -16.9%

> Cc1sc2ncn(CC(=O)N3CCN(c4ccc(Cl)cc4)CC3)c(=O)c2c1S(=O)(=O)N1CCN(c2ncccn2)CC1
  VDR inhibitor = -7.9%

> Cc1cccc(OCCSc2nc3ccccc3n2CCC(=O)O)c1
  VDR inhibitor = -25.3%

> O=C(CN(C(=O)c1ccc(Cl)cc1)C1CCCCC1)Nc1ccc(Cl)c([N+](=O)[O-])c1
  VDR inhibitor = 2.9%

Following part
Structure,VDR inhibitor
C=CCn1c(SCCOc2ccc(OC)cc2)nnc1C(NC(=O)c1ccc(OC)cc1)C(C)C (configuration not stated),-14.9%
CCCCC(=O)Nc1cccc(-c2nn3c(C)nnc3s2)c1,-17.4%
COc1ccccc1CC(=O)NN1C(=O)c2ccccc2C1=O,-17.7%
CCc1cc2c(=O)c(-c3cnn(-c4ccccc4)c3)coc2c(CN2CCOCC2)c1O,-9.2%
Cc1nc(NCCc2ccc(S(N)(=O)=O)cc2)c2c(C)c(C)sc2n1,7.5%
N#CC1=C(N)OC2=C(C(=O)CCC2)C1C1C=CCCC1 (configuration not stated),-7.0%
S=C(NCCCN1CCOCC1)Nc1ccc(Cl)cc1Cl,6.0%
CCCCC(=O)c1ccc(O)cc1O,5.2%
CN=C1CC(SC)=C1c1ccc(C)cc1,10.2%
Cc1cc(C)cc(OCc2nnc(SCC(=O)Nc3ccccc3)o2)c1,-3.6%
CCN(CCCNC(=O)CSc1cc(=O)n(C)c2cc(Cl)ccc12)Cc1ccccc1,-12.8%
O=C(Nc1ccn(-c2ccccc2)n1)c1ccc(Cl)cc1,-10.7%
Cc1ccc(C(=O)NCc2ccncc2)cc1S(=O)(=O)Nc1cccc(C)c1C,-2.6%
O=C(O)/C=C\C(=O)N1CCc2ccccc21,-7.8%
CC(OC(=O)c1n[nH]c2ccccc12)C(=O)Nc1ccccc1[N+](=O)[O-] (configuration not stated),1.6%
NS(=O)(=O)c1ccc(CCNC(=O)/C=C/c2ccc([N+](=O)[O-])cc2)cc1,5.8%
COc1ccc(C(Nc2ccccn2)c2oc(CO)cc(=O)c2O)cc1 (configuration not stated),?
O=C(Nc1ccc(SC(F)F)cc1)C12CCC(CC1)C2,-7.9%
CC1(C)CC2CC(C)(CN2C(=O)CCCN2C(=O)c3ccccc3C2=O)C1 (configuration not stated),6.9%
CCOC(=O)c1ccc(NC(=O)CN(Cc2ccc(Cl)cc2)S(C)(=O)=O)cc1,-14.6%
CCc1cccc(N2C(=O)CSC23C(=O)N(Cc2ccccc2F)c2ccccc23)c1 (configuration not stated),17.5%
CCC(=O)c1ccc(OCC(=O)N2CCN(c3ncccn3)CC2)cc1,-1.0%
Cc1[nH]c2ccccc2c1C(=O)/C=C/c1ccccc1Cl,-8.6%
O=C(CC1Sc2ccccc2NC1=O)Nc1cccc(C(=O)O)c1 (configuration not stated),-29.5%
COc1cccc(-c2onc3ccc(C4(C)OCCO4)cc23)c1,-29.1%
Cc1ccc(NC(=O)Cn2nc(C)c(S(=O)(=O)N(C)C)c2C)cc1,1.1%
CCC(Cc1ccccc1)NS(=O)(=O)c1c(C)nc2sccn2c1=O (configuration not stated),-18.8%
CCOc1ccc(N(C)C(=O)C2CCN(S(=O)(=O)c3ccc4c(c3)CCCN4C(C)=O)CC2)cc1,0.2%
O=C1CC(c2ccco2)CC(O)=C1C=NCCN1CCN(C(=S)Nc2ccccc2)CC1 (configuration not stated),-15.5%
Cc1ccccc1C(=O)NC1CCN(Cc2nnnn2Cc2ccc(F)cc2)CC1,-10.2%
CC1(C)CC(=O)C=C(Nc2cc(-c3ccccc3)[nH]n2)C1,-10.0%
COc1ccc(-n2nc(C(=O)N3CCCCC3C)c3c4ccccc4n(C)c3c2=O)cc1Cl (configuration not stated),-14.0%
Cc1nc(-c2cccc(S(=O)(=O)N3CCCC(C)C3)c2)cs1 (configuration not stated),8.2%
COCC(=O)N1CCC(n2nnc3cc(C(F)(F)F)ccc32)CC1,3.3%
O=C1SC(Nc2ccc(Cl)cc2)C(=O)N1Cc1ccccc1 (configuration not stated),3.2%
O=C(O)c1cc2c(N3CCC(Cc4ccccc4)CC3)ncnc2s1,-20.6%
CCN(CC(=O)Nc1ccc(S(=O)(=O)N2CCCC2)cc1)CC(=O)Nc1cccc(OC)c1,15.4%
Cc1ccc(S(=O)(=O)c2c(N)n(CC3CCOC3)c3nc4ccccc4nc23)cc1 (configuration not stated),10.1%
O=C(COC(=O)c1cccs1)c1ccc2c(c1)OCCO2,4.1%
O=C(CCC(=O)N1CCSc2ccccc21)NCCc1ccccc1,-12.4%
O=C1CC(N2CCCN(C3CC(=O)N(c4ccc(F)cc4)C3=O)CC2)C(=O)N1c1ccc(F)cc1 (configuration not stated),2.9%
CCOc1ccccc1N(CC(=O)N1CCc2ccccc2C1)S(=O)(=O)c1ccccc1,-5.8%
CC(C)C[C@H](NC(=O)c1nc[nH]c1C(=O)N1CCN(c2ccccc2)CC1)C(=O)OCc1ccccc1,-20.6%
O=S(=O)(O)CCN1CCOCC1,8.8%
COc1ccc(CN(C)C(=O)CSc2nnc(C3CC3)n2C2CC2)cc1,6.7%
COc1ccccc1NC(=O)CN1C(=O)C(C)(C)c2ccccc21,0.6%
O=C(O)c1cc([N+](=O)[O-])ccc1NCc1ccccc1,-26.4%
Cc1ccnc(Sc2ccc([N+](=O)[O-])cc2[N+](=O)[O-])n1,-20.0%
O=C1NN=C(c2ccccc2)CC1c1ccc(Cl)cc1Cl (configuration not stated),10.0%
CCOc1ccc2c(c1)c(=O)c(C(=O)c1ccccc1)cn2Cc1ccccc1F,5.5%

Continuation.
Structure,VDR inhibitor
O=C(O)CCCNC(=O)/C(=C\c1ccccc1F)NC(=O)c1ccccc1,-17.1%
CCOc1ccc(-n2c(SCC(=O)OC)nc3sc4c(c3c2=O)CCN(C)C4)cc1,5.7%
COc1ccccc1NS(=O)(=O)c1ccc(C(=O)NCC(c2ccco2)N(C)C)cc1 (configuration not stated),-8.9%
CCCN(CC(=O)Nc1ccccc1C)C(=O)c1ccc(N2CCCCC2)c([N+](=O)[O-])c1,-13.4%
CC(C)CCn1c(N)c(S(=O)(=O)c2cccs2)c2nc3ccccc3nc21,?
CC1CCCCN1Cc1c(O)ccc2c(=O)c(-c3cccc(Cl)c3)c(C(F)(F)F)oc12 (configuration not stated),-18.2%
O=c1c2oc3ccccc3c2n(Cc2ccccc2F)c(=O)n1Cc1ccc2c(c1)OCO2,3.0%
O=C(c1ccccc1)c1c[nH]c(C(=O)NCc2cccnc2)c1,0.2%
O=C(O)COc1cccc(NC(=O)C2CCCO2)c1 (configuration not stated),7.3%
CN1CCN(NC(=O)COc2cccc(C(F)(F)F)c2)CC1,-7.5%

Overlap with the part before: 7 compounds, then new ones.
Structure,VDR inhibitor
CCCN(CC(=O)Nc1ccccc1C)C(=O)c1ccc(N2CCCCC2)c([N+](=O)[O-])c1,-13.4%
CC(C)CCn1c(N)c(S(=O)(=O)c2cccs2)c2nc3ccccc3nc21,?
CC1CCCCN1Cc1c(O)ccc2c(=O)c(-c3cccc(Cl)c3)c(C(F)(F)F)oc12 (configuration not stated),-18.2%
O=c1c2oc3ccccc3c2n(Cc2ccccc2F)c(=O)n1Cc1ccc2c(c1)OCO2,3.0%
O=C(c1ccccc1)c1c[nH]c(C(=O)NCc2cccnc2)c1,0.2%
O=C(O)COc1cccc(NC(=O)C2CCCO2)c1 (configuration not stated),7.3%
CN1CCN(NC(=O)COc2cccc(C(F)(F)F)c2)CC1,-7.5%
CNC(=O)c1c(C)[nH]c(=S)c(C#N)c1-c1ccco1,?
Cc1ccccc1C(=O)N1CCC(C(=O)NC2CCCC2)CC1,1.5%
COc1ccc(CNC(=O)CN(C)S(=O)(=O)c2ccccc2)cc1,-3.6%
CCOC(=O)C1=C(c2ccccc2)NC(SCC(=O)NC2CCCCC2)=C(C#N)C1c1ccco1 (configuration not stated),-6.6%
CNC(=S)Nc1ccc([N+](=O)[O-])cc1C,-2.4%
COc1cccc(NC(=O)[C@@H]2CCC(=O)N2C2OC(=O)c3ccccc32)c1 (some centres not stated),-13.1%
Cc1nn(C2CCS(=O)(=O)C2)c2nc(C3CC3)cc(C(=O)Nc3ccc(C(N)=O)cc3)c12 (configuration not stated),18.1%
O=C(N/N=C/c1ccnc2ccccc12)c1ccccc1O,-21.4%
C=C(C)C(=O)OCC(O)COc1ccc(C(C)(C)c2ccc(OCC(O)COC(=O)C(=C)C)cc2)cc1 (configuration not stated),-15.3%
COc1ccc(S(=O)(=O)N2CCC(Oc3cccc(C(F)(F)F)c3)CC2)cc1OC,-1.5%
Cc1ccc(C(=O)Nc2ccc(C(=O)O)cc2)cc1S(=O)(=O)NCc1ccccc1,-3.5%
CCOC(=O)c1cc(-c2ccc(C)cc2)n(CCC(=O)N2CCN(c3ccccn3)CC2)c1C,10.7%
O=C(CCCC(=O)N1CCc2ccccc21)N1CCc2ccccc21,2.7%
CCOC(=O)CNC(=O)c1c2c(nc3ccccc13)CCCC2,2.7%
CCCCN(Cc1ccccc1)C(=O)c1cnc2n(c1=O)CCS2,-8.2%
S=C1NCN(Cc2cccnc2)CN1,2.5%
CCOc1ccccc1C(=O)NCC(=O)NCC(C)(C)N1CCOCC1,3.6%
CCC(C)NCCCOc1c(C)cc(C)cc1Br (configuration not stated),-25.2%
COc1cccc(Nc2ncc3nc(-c4cc(F)cc(F)c4)c(=O)n(C4CC4)c3n2)c1,1.5%
CCOC(=O)[C@H]1[C@H]2COc3ccc(Br)cc3[C@@H]2N2C(=O)CN(Cc3ccc(OC)cc3)C(=O)[C@@]12C,-3.7%
CCOc1ccccc1OCCCC(=O)Nc1cc(S(=O)(=O)N2CCOCC2)ccc1OC,11.7%
O=C(CCC(=O)N1CCN(c2ccccn2)CC1)c1ccc(Cl)s1,-17.4%
CCc1csc(CCNC(=O)C2CCC(=O)N(CCOC)C2)n1 (configuration not stated),-6.3%
CC(=O)C1=C(O)C(=O)N(CCc2c[nH]c3ccccc23)C1c1ccc(O)cc1 (configuration not stated),-5.2%
